# NPYLR7 ag = activates Aedes aegypti NPYLR7 receptor; hit rate 0.15% among 270,000; HEK293T NPYLR7/Galpha15, GCaMP6s calcium fluorescence; activation, % at 10 µM; in the data active = activation above about 40%;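 note: 0% = vehicle and 100% = reference agonist at the receptor; some compounds past the cut are filed as inactive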
# NPYLR7 ag max-min = second read-out of NPYLR7 ag, no call of its own (marks repeat the call); activation, %; measured here: Max-Min RFU normalised activation; some inactives read as strong as hits;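 span of the calcium signal over five minutes; 0% = vehicle and 100% = native peptide agonist; compound fluorescence can raise it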
# * = called active by the depositor; & = joins results of further samples.
SMILES,NPYLR7 ag,NPYLR7 ag max-min
CCn1cnnc1CNC(=O)c1cc2c(s1)CCC(C(C)(C)C)C2 (configuration not stated),0,-1
O=S(=O)(/C=C/c1ccccc1)Nc1cccc2c(O)cccc12,9,8
O=C(Nc1ccccc1)Nc1nnc(-c2ccc3c(c2)OCCO3)o1,-1,-1
OC(c1ccccc1)C1CCN(Cc2cn[nH]c2-c2ccc(F)cc2F)CC1 (configuration not stated),3&1,-1&-2
COc1ccc(CNc2nnc(SC(C)C(=O)NC3CC3)s2)cc1 (configuration not stated),3,-4
CCC1CCCCN1C(=O)NC1CCN(c2ccccc2)C1=O (configuration not stated),5,1
CC(C)CSc1nc2c(c(=O)n(C)c(=O)n2C)n1CC=Cc1ccccc1,1,8
Cc1ccc(-c2ccc(OCCNC(=O)COc3ccccc3)nn2)cc1,-4,-5
Cc1cc2ncc(C(=O)NC3CCOC(C)(C)C3)c(C)n2n1 (configuration not stated),4,3
Cc1cccc(NC(=O)Nc2c(C)nc3c(C)cccn3c2=O)c1,2,2
CC(C)N(Cc1cc(NC(=O)C2CCCC2)ccc1N(C)C)S(C)(=O)=O,17,16
Cc1nnsc1C(=O)N1CCCC(C(=O)c2ccc3c4c(cccc24)CC3)C1 (configuration not stated),14,3
COC(=O)c1ccc(C)c(S(=O)(=O)NC(C#N)C(C)(C)C)c1 (configuration not stated),-1,1
CCCc1c(C(=O)N2CCCC(C(=O)OCC)C2)cnn1-c1ccccc1C (configuration not stated),-16,7
C=C1c2ccccc2C(=O)N1C(C)C(=O)NCCSCc1ccc(C)cc1 (configuration not stated),3,2
O=C(CC1CCCC1)N1CCC(CO)(Cc2cccc(C(F)(F)F)c2)CC1,1,-5
O=c1nc(C=C2Nc3ccccc3S2)sc2ccccc12,-4,-5
CCc1nc2c(OCCCN(C)S(C)(=O)=O)cccn2c1N(C)C(=O)c1ccco1,14,1
CCOC(=O)c1nc2cc(C)c(C)cc2nc1N1CCN(S(=O)(=O)c2ccccc2C(F)(F)F)CC1,5,1
C#CCNC(=O)CSCc1ccccc1Cl,16,6
FC(F)Sc1ccc(NC(=S)NN2CCCCC2)cc1,1,1
CCc1nc2c(OCc3ccc(F)cc3)cccn2c1N(C)C(=O)c1ccc(C)cc1,-3,6
CCn1ncnc1CN(C)Cc1cccc2cnccc12,-19,-18
CCn1ncnc1-c1c(-c2ccccc2)ncn1CCc1ncccc1C,3,2
Cc1cccc(Nc2ncc([N+](=O)[O-])cc2[N+](=O)[O-])n1,-1,-2
O=C1CSC(c2ccccn2)N1c1ccc(Cl)cn1 (configuration not stated),-6,-10
COc1ccc(S(=O)(=O)NCC2CCCN(C(=O)c3ccc4ncccc4c3)C2)cc1 (configuration not stated),8&-4,7&-6
CCN1CC(C)SC1=N (configuration not stated),20,14
COCCCC1CCN(Cc2cn[nH]c2-c2cc(OC)c(OC)c(OC)c2)CC1,1,-2
CCOC(=O)c1cc(C(C)(C)C)n(C2CCN(C(=O)Cc3ccc4c(c3)OCO4)CC2)n1,0,-2
Cc1cn2c(n1)CCC(NS(=O)(=O)c1ccccc1Cl)C2 (configuration not stated),-25&-1,-24&0
CC(C)S(=O)(=O)N(C)C(=O)/C=C/c1csc(Br)c1,-4,-6
Cc1cnc(C(=O)Nc2cc3c(cc2Cl)OCCCO3)cn1,1,1
CCCNC(=O)CNC(=O)CSc1ccc(Br)cc1,4,3
Cc1nc(CC(=O)NCCc2csc(-c3cccnc3)n2)cs1,6,0
c1csc(-c2noc(CSc3nc4ccccc4o3)n2)c1,11,10
CCn1nnc2c(SCc3c(F)cccc3Cl)ncnc21,0,24
CCOC(=O)C1(Cc2cccc(OC)c2)CCCN(C(=O)c2cnsn2)C1 (configuration not stated),2,3
COc1cccc(NC(=O)CSc2nc(=O)n3cc(C)ccc3n2)c1,2,2
CC(=O)N1CCc2ccccc2C1CC(=O)NC1CCCC1 (configuration not stated),2,4
CN(CCc1noc(C2CC2)n1)C(=O)[C@@H]1C[C@@H]2C=C[C@H]1C2,-2,0
O=C1NC(c2ccc(Br)cc2)C(=C(O)c2ccc(Cl)cc2)C1=O (configuration not stated),8,2
COc1cc(C(C)=O)ccc1Oc1ncnc2c1cnn2-c1ccc(Cl)cc1,1,1
O=C(Nc1cccc(-c2cccc(Cl)c2)c1)C1CCN(C(=O)Cn2cccn2)CC1,16,3
Cc1ccccc1CC1(C)C(=O)Nc2c(Cl)ccc(Cl)c21 (configuration not stated),5,3
CC1=C(C(=O)OC2CCCC(C)C2)C(c2ccccc2OCc2ccccc2)NC(=O)N1 (configuration not stated),-4,-10
COc1ccc(Nc2nnc(-c3cc4cc([N+](=O)[O-])ccc4oc3=O)s2)cc1,-13,-16
COc1cccc(-c2cn(CCc3c(C)n[nH]c3C)nn2)c1OC,1,-4
Cc1ccc(-c2csc(NC(=O)C(C)OCC3CCCO3)n2)c(C)c1 (configuration not stated),-4,-3
Cc1ccc(C(NC(=O)CN2CSCC2=O)c2ccccc2)cc1 (configuration not stated),1,-2
COc1ccccc1-n1c(CNC(=O)c2cccs2)nnc1SCC(=O)Nc1cccc(C)c1,11,11
CC1CC1c1ccc(CNCc2ccc3c(c2)OCCO3)o1 (configuration not stated),2,2
CC1COC2(CCN(c3nc(=O)c4cc(C(F)(F)F)cc([N+](=O)[O-])c4s3)CC2)O1 (configuration not stated),-6,-13
CCN(CCNC(=O)C1COCC(=O)N1Cc1ccccc1)C1CC1 (configuration not stated),-5,24
COc1ccccc1-c1cc(C(=O)N2CCN(c3cccc(C(F)(F)F)c3)CC2)n2nc(C(C)(C)C)cc2n1,-11&7,-8&23
CN1CCC2(CC1)CN(C(=O)CC13CC4CC(CC(O)(C4)C1)C3)CCN2C,6,2
CN1CCN(CCNC(=O)C(=O)Nc2ccc(Cl)c(C#N)c2)CC1,7,6
Cc1nn(-c2nc(C)c(C)c(=O)[nH]2)c(C)c1CCC(=O)NCc1cc(-c2ccccc2)on1,10,4
Cc1cc(C)c2sc(N(CCCN3CCOCC3)C(=O)c3ccno3)nc2c1,0,26
Nc1cc(-c2cccc(Cl)c2)nn1-c1ccc(C(=O)Nc2ccc(Oc3ccccc3)cc2)cc1,-5,-12
# Further records follow.
SMILES,NPYLR7 ag,NPYLR7 ag max-min
CCC1(c2ccccc2)NC(=O)N(C)C1=O (configuration not stated),21,4
[O-][N+](=Cc1ccc(F)cc1)c1ccccc1,-6,-10
CC(Cn1cccn1)n1cnc2cccc(C(F)(F)F)c2c1=O (configuration not stated),-1,0
C#CCOCC(O)CN(Cc1ccco1)Cc1ccc(F)cc1F (configuration not stated),13,20
O=C(CN(C1CC1)S(=O)(=O)c1ccc(F)cc1)N(CCc1c[nH]c2ccccc12)Cc1ccc(C(F)(F)F)cc1,11,21
C=CCc1cc(/C=C2/NC(=O)N(Cc3ccccc3F)C2=O)cc(OCC)c1O,-13,-22
CCC(c1ccccc1)N(CC(C)C)C(=O)Cn1nc(C)ccc1=O (configuration not stated),2,-4
COc1ccccc1CCCNC(=O)c1c[nH]c2ccccc12,-3,-4
CCOc1ccc(OC(C)C(=O)NNC(=O)C(C)n2cccn2)cc1 (configuration not stated),-7,-7
C=CCN1C(=O)NC(c2cccc(Cl)c2)C2=C1CN(CC(=O)NCCc1c[nH]c3ccccc13)C2=O (configuration not stated),-2,7
COC(=O)c1ccc(-c2nc(CN(C)Cc3cccc(-n4nc(C)cc4C)c3)c(C)o2)cc1,-1,-2
CCOC(=O)c1c(NC(=O)C(OC(C)=O)c2ccccc2)sc(C(=O)OC)c1C (configuration not stated),-2,-5
Cc1c(C(=O)OCc2cc(=O)n3ccsc3n2)sc2nc3n(c(=O)c12)CCC3,1,7
Cc1nc(C(=O)N2CCCC(CNC(=O)c3cccc4ccccc34)C2)cs1 (configuration not stated),16,6
O=c1cc(-c2ccccc2)nc(SCc2nc(-c3cccc(Cl)c3)no2)[nH]1,-6,-18
O=c1oc2ccc3ccccc3c2cc1-c1nnc(Nc2cc(C(F)(F)F)ccc2Cl)s1,-1,-6
COC(=O)c1sccc1S(=O)(=O)Nc1cccc2c1OCCO2,3,0
CCCc1nn(-c2cccc(F)c2)c(CC)c1C(=O)NC(C)C,17,15
CN(C)Cc1ccc(C2CCCCN2C(=O)c2cn(-c3ccccc3)nn2)cc1 (configuration not stated),-13,-17
CCn1nc(C)c(CN2CCCCC2c2ccccn2)c1C (configuration not stated),19,5
Cc1ccn(CC(=O)N2CCC(n3nccc3NC(=O)CCOc3ccccc3)CC2)n1,-2,-3
COc1cccc(C(=O)NCc2nnnn2-c2ccc(F)c(F)c2)c1,2,-1
CCOCCn1c(=O)c2c(nc3n2CCN3c2cc(C)cc(C)c2)n(C)c1=O,2,-4
Cc1cccn2c(=O)nc(SC3CCCC3)nc12,6,6
CCCNC(=O)[C@@H]1CCCC[C@@H]1C(=O)NCCc1c[nH]c2ccccc12,-5,-8
Cc1cc(C)cc(NS(=O)(=O)c2ccccc2Cl)c1,-31,-32
CC(Nc1c(C#N)c(=O)n(C)c(=O)n1C)c1cc2ccccc2o1 (configuration not stated),0,-1
Cc1nc(CSCC(=O)N2CCC(CN3CC(C)OC(C)C3)CC2)no1 (configuration not stated),2,-1
O=C(Nc1cccnc1N1CCN(C(=O)NCCc2ccccc2F)CC1)c1ccc2c(c1)OCO2,22,27
CN1CCN(C2CC(=O)N(c3ccc(F)cc3)C2=O)CC1 (configuration not stated),2,-1
N#Cc1cccnc1N1CCc2[nH]c3ccccc3c2C1,10,11
Cc1ccc(C)c(NC(=O)CCNc2nccc(N3CCC(O)C3)n2)c1 (configuration not stated),3,-6
O=C(NNC(=O)c1n[nH]c(=O)c2ccccc12)c1ccc(Cl)cc1Cl,-1,-1
COC(=O)CNC(c1ccccc1)c1cc(C)ccc1NS(=O)(=O)c1ccc(C)cc1 (configuration not stated),-3,-3
CC(C)(O)c1ccc(CN(Cc2cccs2)C2CC2)o1,-1,6
CNC(=O)Cc1ccccc1NC(=O)C1CSc2ccccc21 (configuration not stated),-2,-2
O=C(Nc1cccc(N2CCC(NC3CCCc4ccccc43)CC2)c1)c1ccncc1 (configuration not stated),-3,-9
Cc1cc(=O)oc2cc(OCc3nc(-c4ccc(Cl)cc4)no3)ccc12,-1,-7
CC(=NNC(=O)Cn1cnc2ccccc21)c1ccc(F)cc1,-4,-9
Cn1c(NNC(=O)c2c(F)cccc2Cl)cc(=O)n(C)c1=O,10,8
COc1ccc2c(c1)CCC(=Cc1cc(Br)ccc1OC)C2=O,-1,3
COc1cccc2sc(N(Cc3cccnc3)C(=O)Cc3ccccc3)nc12,-7,-4
CSc1ccc(NC(=O)N(CCO)C2CC2)cc1F,4,-9
COC(=O)CCC(O)=C1C(=N)CC(C)(C)CC1=O,-2,-4
COc1cc(/C=N\Nc2nc(N3CCOCC3)nc(N3CCOCC3)n2)ccc1O,4,-1
Cc1ccc(C(=O)Nc2ccc3c(c2)N(C(=O)c2ccccc2)CCC3)cc1,-4,4
Cc1ccc(C2CC(C(F)(F)F)n3ncc(C(=O)Nc4cccc(C(C)O)c4)c3N2)cc1 (configuration not stated),-3,-5
CN(Cc1nc2c(Br)cc(Br)cc2c(=O)[nH]1)C1CCCCC1,0,-2
Cc1cc(C)cc(OCc2nc(C(=O)NC3CC3)cs2)c1,19,20
Nc1nc(N2CCC(O)(c3ccccc3)CC2)c2[nH]cnc2n1,-2,5
O=c1c(Nc2ccccc2)nsnc1Nc1ccccc1,1,-1
Cc1[nH]c(=S)sc1CC(=O)NCCC1CCCO1 (configuration not stated),14,9
COc1ccccc1-n1c(-c2ccccc2)cc(C(=O)NC(C)CCc2ccccc2)c1C (configuration not stated),-9,2
Cc1ccc2nc(-c3ccc(F)cc3)c(NCc3ccccc3)n2c1,13,9
Cn1cc(CN(Cc2ccncc2)C[C@@H]2CCC(=O)N2)c(-c2cccc(Cl)c2)n1,3&3,-1&3
O=C(NCCc1nc(-c2ccccc2)no1)C1CC(=O)N(C2CC2)C1 (configuration not stated),6,-4
N#CSc1ccc(Nc2nc3ccccc3nc2NS(=O)(=O)c2cccc([N+](=O)[O-])c2)cc1,1,-5

# Filtered by structure, the entries above containing two or more sulfur atoms
SMILES,NPYLR7 ag,NPYLR7 ag max-min
COc1ccc(CNc2nnc(SC(C)C(=O)NC3CC3)s2)cc1 (configuration not stated),3,-4
O=c1nc(C=C2Nc3ccccc3S2)sc2ccccc12,-4,-5
FC(F)Sc1ccc(NC(=S)NN2CCCCC2)cc1,1,1
CC(C)S(=O)(=O)N(C)C(=O)/C=C/c1csc(Br)c1,-4,-6
Cc1nc(CC(=O)NCCc2csc(-c3cccnc3)n2)cs1,6,0
c1csc(-c2noc(CSc3nc4ccccc4o3)n2)c1,11,10
COc1ccccc1-n1c(CNC(=O)c2cccs2)nnc1SCC(=O)Nc1cccc(C)c1,11,11
Cc1c(C(=O)OCc2cc(=O)n3ccsc3n2)sc2nc3n(c(=O)c12)CCC3,1,7
COC(=O)c1sccc1S(=O)(=O)Nc1cccc2c1OCCO2,3,0
Cc1[nH]c(=S)sc1CC(=O)NCCC1CCCO1 (configuration not stated),14,9
N#CSc1ccc(Nc2nc3ccccc3nc2NS(=O)(=O)c2cccc([N+](=O)[O-])c2)cc1,1,-5

# Source: PubChem BioAssay (Fisher Drug Discovery Resource Center)

# These rows are one share of the data, so the mix of outcomes need not match the whole.
